Screening data (PubChem BioAssay)
Kir21 block = Kir2.1 (mouse) channel inhibition. P35561. HEK293-Kir2.1, FluxOR thallium flux fluorescence; stronger effect = lower value. B-score at 10 µM. 310,000 tested, 0.85% active. AID 1672;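 active = fluorescence ratio B-score at or below minus 3 SD of library scores, with starting-brightness B-score within 2 SD, cut at about -4.2 in these data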;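 also: channel flux triggered by added potassium and thallium sulfate stimulus; B-score of peak minus minimum fluorescence over baseline after thallium stimulus; more negative B-score means stronger Kir2.1 block with less thallium influx; some compounds called inactive have numbers as strong as hits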
Target sequence (P35561 whole entry, looked up): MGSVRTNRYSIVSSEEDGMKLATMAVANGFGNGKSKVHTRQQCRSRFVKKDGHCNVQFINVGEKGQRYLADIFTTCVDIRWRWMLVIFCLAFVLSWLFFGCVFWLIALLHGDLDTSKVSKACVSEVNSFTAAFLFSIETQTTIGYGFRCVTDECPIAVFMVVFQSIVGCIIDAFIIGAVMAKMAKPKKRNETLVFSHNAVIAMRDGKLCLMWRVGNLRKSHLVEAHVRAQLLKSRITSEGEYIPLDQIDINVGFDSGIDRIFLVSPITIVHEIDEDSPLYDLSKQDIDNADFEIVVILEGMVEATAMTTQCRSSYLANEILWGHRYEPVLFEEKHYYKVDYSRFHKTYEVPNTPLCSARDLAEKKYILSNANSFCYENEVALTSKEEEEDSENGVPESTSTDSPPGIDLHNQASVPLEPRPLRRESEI
Numbers without * were called inactive. The list is partial, and most or all hits are left out here.

SMILES | Kir21 block
COc1cccc(C2CC(c3ccccc3Cl)n3nnnc3N2)c1 (stereo not given) | -1.16
Cn1c(CCNC(=O)c2ccco2)nc2cc(NC(=O)NC3CCCCC3)ccc21 | 0.12
Cc1ccccc1NC(=S)NC(NC(=O)C(C)(C)C)C(Cl)(Cl)Cl (stereo not given) | 0.78
CCc1ccc2[nH]c(=O)c(CN(CCN(CC)CC)C(=S)NCc3ccco3)cc2c1 | 0
CCOC(=O)C1=C(c2ccccc2)NC(=O)NC1c1cc(OC)c(OC)cc1OC (stereo not given) | -0.74
COC(=O)Cc1cc(=O)n2[nH]cnc2n1 | -0.95
C=CCCC(=O)N(C)CCO | -0.79
O=C1c2ccccc2NC(c2ccc(-c3cccc(Cl)c3)o2)N1O (stereo not given) | -1.22
CCOc1cc(C(=O)OC(C)C(=O)Nc2ccc(S(N)(=O)=O)cc2)ccc1OCC(=O)N1CCOCC1 (stereo not given) | 1.12
COc1cc(C(=O)NCc2nnc(SCC(=O)Nc3nc4ccc(C)cc4s3)o2)cc(OC)c1OC | 1.22
CCN(CC)S(=O)(=O)c1ccc(N2CCOCC2)c(NS(=O)(=O)c2ccc(OC)cc2)c1 | 1.12
Cc1ccc(OCc2ccc([N+](=O)[O-])cc2)c([N+](=O)[O-])n1 | -0.05
CCOC(=O)c1cnn(-c2ccccc2)c1-c1ccccc1 | -1.67
O=C(CCNC(=O)Cn1ccc2ccccc2c1=O)NCCc1ccc(Cl)cc1 | -0.06
CCCCNC(=O)CSc1nc2ccc(N3CCOCC3)cc2c(=O)n1CCc1ccccc1 | 0.04
CN(C)C(CNC(=O)c1cccc(S(=O)(=O)N(C)C)c1)c1ccccc1 (stereo not given) | 0.28
O=C1NCC2=C1C(c1ccccc1)Nc1ccccc1N2 (stereo not given) | -0.98
CCOc1ccccc1N(C(=O)c1snc(C(N)=O)c1N)C(CC)C(=O)NC1CCCC1 (stereo not given) | 1.19
COCCNC(=S)Nc1ccc(S(=O)(=O)Nc2cnc3ccccc3n2)cc1 | -0.26
C=CCC1Cc2c(cccc2[N+](=O)[O-])C(CC=C)N1 (stereo not given) | -0.86
CC(=O)Nc1sc(C)c(C)c1C(=O)Nc1ccc(C)cc1 | -0.41
COc1ccc(N(CC(=O)N/N=C/c2ccco2)S(=O)(=O)c2ccccc2)cc1 | 0.48
COc1cccc(N2CCN(c3ccc4nnc(CCC(=O)Nc5ccccc5OC)n4n3)CC2)c1 | -2.01
S=c1[nH]nc(-c2ccncc2)n1CC1CCCO1 (stereo not given) | 1.43
c1ccc(Nc2nc3ccccc3n3cnnc23)cc1 | 1.5

The listing continues:
SMILES | Kir21 block
N#CC(C#N)=Cc1ccc(OC(=O)c2ccccn2)cc1 | 0.17
COc1ccc(N2CCN(CCCNC(=O)c3ccc(CS(=O)(=O)c4ccc(Cl)cc4)o3)CC2)cc1 | -2.1
COc1cccc(-c2nc(N)nc(SC)c2C#N)c1 | -0.92
Cc1cc(N)c(-n2cc3c(=O)n(C)c(=O)n(C)c3c2)cc1C | 0
CCN(CC)CCN(Cc1cc2cc3c(cc2[nH]c1=O)OCO3)C(=S)NCCCN(C)C | 0.94
C/C(=N\Nc1cc(Cl)nc(C)n1)c1ccccc1 | 0.01
O=C(O)/C=C/C(=O)c1ccc(O)cc1 | 0.51
Cc1ccc(S(=O)(=O)N2CCC(=O)N(C(COCc3ccc(Cl)cc3)Cc3ccccc3)CC2)cc1 (stereo not given) | -0.58
CCOc1ccc(CN2CCNC(=O)C2CC(=O)NCCCOc2cccnc2)cc1 (stereo not given) | 0.78
O=C(CCNC(=O)c1ccco1)NCCc1ccc(Cl)cc1 | -1.37
CO[C@@H]1O[C@@H]2COC(c3ccccc3)O[C@@H]2[C@@H](OC)[C@@H]1O (stereo not given in full) | 2.2
CC(=O)c1cc2c(cc1NC(=O)c1ccccc1C)OCO2 | -0.09
O=C(Nc1ccccc1)Nc1cccc2nsnc12 | 0.91
COc1ccc(CC(=O)Nc2nc(-c3cccc([N+](=O)[O-])c3)cs2)cc1 | -1.4
CCn1c(=O)cc(SCC(=O)NCc2ccc(C)cc2)c2ccccc21 | 0.59
Cc1ccc(-c2csc(NC(=O)C3CCN(S(=O)(=O)c4cccs4)CC3)n2)cc1 | 0.94
Cc1ccc2oc(=O)n(CCOc3ccccc3Cl)c2c1 | 0.72
CC(C)/C=C/CN1CCN(CCCc2ccccc2)C(CCO)C1 (stereo not given) | -0.26
COC(=O)/C(=C1/Oc2ccc(C(C)(C)C)cc2S1)C(F)(F)F | -1.1
CCC(=O)Oc1ccc(NC(=O)CSCc2ccccc2)cc1 | -1.62
Cc1n[nH]c(C)c1CN(C)C(=O)C1CCC(=O)N(CCc2cccc(F)c2)C1 (stereo not given) | 0.4
CCNC(=S)N(Cc1ccco1)Cc1cc2cc3c(cc2[nH]c1=O)OCCO3 | -2.28
O=C(NCCCN1CCOCC1)c1cc(Cl)ccc1Cl | 2.81
COc1ccc(/C=C\C(=O)CC(O)(c2ccccc2)C(F)(F)F)cc1 (stereo not given) | 0.05
CC(=O)Nc1cc(S(=O)(=O)Nc2ccccc2C)c(C)cc1C | -0.93

Continuation.
SMILES | Kir21 block
COCCn1c(=S)[nH]c2cc(C(=O)N3CCN(c4ccc(F)cc4)CC3)ccc2c1=O | 1.11
CC(C)(C)OC(=O)N1CCC(CNC(=O)c2ccc(F)cc2F)CC1 | -0.13
Cc1nc2ccccc2c(=O)n1-c1ccc(NS(=O)(=O)c2cc(F)ccc2F)cc1 | -1.05
O=C(Nc1ccc(O)cc1)c1cc(S(=O)(=O)N2CCCC2)ccc1Cl | -1.49
O=Cc1ccc(Oc2cc(-c3ccccc3)nc(-c3ccccc3)n2)cc1 | -0.12
CCCCC(=O)Nc1ccc(N2CCN(C(=O)CC)CC2)cc1 | 0.55
Cc1c(NC(=O)c2coc(=O)c(Br)c2)c(=O)n(-c2ccccc2)n1C | -0.55
Cc1ccc(S(=O)(=O)N2CCN(Cc3ccccn3)CC2)cc1 | -1.45
CCOc1ccc(C(=O)NC(C(=O)NCc2cccnc2)C(C)C)cc1 (stereo not given) | 0.04
O=C(O)CSc1nnc(-c2cccs2)n1-c1ccc(Cl)cc1 | -0.2
Cc1ccc(C2CC(c3ccc(NS(C)(=O)=O)cc3)=NN2C(=O)c2ccco2)cc1 (stereo not given) | 0.84
CCOC(=O)C1CCN(C(=O)CN2C(=O)c3ccccc3S2(=O)=O)CC1 | 1.09
O=C(Nc1cc(Cl)ccn1)C1CCN(S(=O)(=O)c2cccs2)CC1 | -0.3
O=C(/C=C/c1ccco1)Oc1ccc(C(=S)N2CCOCC2)cc1 | 0.07
Cc1ccc(Cl)cc1N1CCN(S(=O)(=O)c2ccc3c(c2)oc(=O)n3C)CC1 | -0.07
FC(F)(F)C1CC(c2cccs2)Nc2ncnn21 (stereo not given) | -1.04
CCc1ccc(OCC(O)CN2CCN(CCO)CC2)cc1 (stereo not given) | -0.85
OCCCNc1c2c(nc3cc(-c4ccc(Cl)cc4)nn13)CCC2 | 1.5
O=C(CN1C(=O)COc2ccccc21)N1CCc2ccccc2C1 | 0.99
CC(C)C(=O)NC(C)C(c1cccs1)N1CCN(C)CC1 (stereo not given) | -1.75
Cc1cc(Cl)ccc1OCC(=O)N/N=C/c1ccc(OC2OC(CO)C(O)C(O)C2O)cc1 (stereo not given) | -0.2
c1ccc(-c2noc(-c3cccc4ccccc34)n2)cc1 | -0.26
Cc1ccc(Cn2ncc3c(N4CCN(c5ccc(C)cc5)CC4)ncnc32)cc1 | 1.61
C/C(=N\NC(=O)c1nn(C)c(C)c1Br)c1cccc(NC(=O)c2ccoc2C)c1 | -0.04
O=C(NN1C(=O)C2C3C=CC(O3)C2C1=O)c1cccc(Br)c1 (stereo not given) | -0.32

(next part)
SMILES | Kir21 block
COc1ccccc1CNC(=O)C(=O)NCC1OCCCN1S(=O)(=O)c1cccs1 (stereo not given) | -2.22
Clc1ccc(C2=NOC(c3nnc(-c4ccccc4)o3)C2)cc1 (stereo not given) | -1.12
O=C(CCc1nc(-c2ccc(Cl)cc2)no1)NCC1CCCO1 (stereo not given) | -0.17
Cc1cc(S(=O)(=O)N2CCOCC2)ccc1OCC(=O)Nc1cccc(C(F)(F)F)c1 | 0.61
CC(Oc1cc2oc(=O)c3c(c2cc1Cl)CCCC3)C(=O)NCC1CCC(C(=O)O)CC1 (stereo not given) | -1.5
Nc1c(C(=O)c2ccc(Cl)cc2)sc2nc3c(cc12)CCC3 | 1.91
COc1ccc(N2CCN(C(C)C(=O)N3CC(C)OC(C)C3)CC2)cc1 (stereo not given) | -1.58
N=C1C(c2ccccc2)=C(O)CN1c1ccccc1N1CCOCC1 | -0.77
CCOC(=O)c1ccccc1NC(=O)c1cccc2c1C(=O)N(C1CCN(C(=O)OCC)CC1)C2 | -0.09
O=C(CCc1nc(-c2ccccc2Cl)no1)NCCc1ccccc1 | -1.14
O=c1c2ccccc2ncn1-c1ccc(Cl)c(Cl)c1 | -1.67
O=C(O)c1ccc(S(=O)(=O)N(Cc2ccccc2)Cc2ccccc2)cc1 | -1.89
O=c1[nH]c2cccc(Cl)c2n(CCNc2ncc(C(F)(F)F)cc2Cl)c1=O | -0.76
O=S(=O)(Cc1ccccc1Cl)N1CCN(Cc2ccc3c(c2)OCO3)CC1 | -0.29
Nc1nc(SCc2ccccc2)ns1 | 0.21
Nc1cc2nsnc2cc1Br | -1.28
CCCn1c(N)c(N(CCOC)C(=O)c2cc3c(s2)CCCCC3)c(=O)[nH]c1=O | 1.17
CCOC(=O)C1=C(O)C(=O)N(Cc2cccnc2)C1c1ccc(OC)cc1 (stereo not given) | 0.33
Cc1ccc(-c2csc(NC(=O)C3CSC4(C)CCC(=O)N34)n2)cc1 (stereo not given) | -2.26
Cc1cc(=O)n(CCO)c(O)c1C#N | -0.61
CSc1ccc(CNCc2ccc3c(c2)OCO3)cc1 | -0.91
COC(=O)C1=C(C)N(c2ccc(Cl)cc2)/C(=C/c2ccc(O)cc2)C1=O | -0.61
Cc1cccc(C(=O)OCC(=O)NN2C(=O)NC3(CCC(C)CC3)C2=O)c1O (stereo not given) | 0.97
COc1ccc(NC(=S)NNC(=O)c2ccc(S(=O)(=O)N3CCOCC3)cc2)cc1 | 0.17
COc1ccc2oc(C(=O)C3CC3)c(N)c2c1 | -0.63

Given as tab-separated lines: part of the list above
smiles	Kir21 block
O=c1[nH]c2cccc(Cl)c2n(CCNc2ncc(C(F)(F)F)cc2Cl)c1=O	-0.76
CC(C)C(=O)NC(C)C(c1cccs1)N1CCN(C)CC1 (stereo not given)	-1.75

Further results
SMILES | Kir21 block
O=C(O)c1ccc(COCC(F)(F)C(F)F)o1 | -1.14
O=C(CSc1nnc2ccccn12)Nc1ccccc1C(=O)NC1CC1 | -1.24
CC(=O)c1ccc(NS(=O)(=O)c2c(C)cc(C)cc2C)cc1 | 0.03
O=C1c2ccccc2C(=O)c2c1oc(C(F)(F)F)c2C(=O)c1ccccc1 | 3.25
CC(C)(C)OC(=O)N1CCC(C(=O)NNC(=O)c2ccc(Cl)cc2Cl)CC1 | 0.98
CCOC(=O)N1CCN(C(=O)C2CCN(S(=O)(=O)c3ccc(Cl)cc3)CC2)CC1 | 0.31
Cc1ccc(S(=O)(=O)N/N=C/c2cnn(C)c2C)cc1 | 2.03
CC1=Nn2c(nnc2-c2ccco2)SC1 | 0.72
CC(=O)NCCN1C(=O)C2C3c4ccccc4C(c4ccccc43)C2C1=O (stereo not given) | 0.09
CCC(=O)N1CC2(c3ccccc3)CN(C(=O)CC)CC(c3ccccc3)(C1)C2=O | 0.37
CC(=O)Nc1ccc(S(=O)(=O)NCc2cccnc2)cc1 | 0.01
C=CCOc1cccc(C(=O)NC(c2ccccc2)C(C)C)c1 (stereo not given) | -1.4
N/C(=N\OC(=O)c1cc(-c2ccccc2)nc2ccccc12)c1ccc(Cl)cc1 | 0.75
COc1ccc(N2C(=O)CC(Sc3nc(C)c4c(n3)CCCC4)C2=O)cc1 (stereo not given) | 0.41
CCOc1ccc(-c2nnn(CC(=O)N3CCN(c4ccc(OC)cc4)CC3)n2)cc1OCC | 0.03
CCCc1cc(=O)[nH]c(SCC(=O)c2c(N)n(C)c(=O)n(C)c2=O)n1 | 0.13
CCOC(=O)C1=C(C)N=C2SCCC(=O)N2C1c1sccc1C (stereo not given) | -0.49
CC(=O)Nc1ccc2c(c1)C(=O)c1ccccc1C2=O | 0.02
CCNc1nc(NCC)nc(C(=O)NN)n1 | 0.8
CN(C)c1cccc(C(=O)N/N=C/c2ccoc2)c1 | 0.75
Cc1cccc(NC(=O)CN2CCSc3ccccc32)c1 | -1.3
COC(=O)C1=C(C)NC(C)=C(C(=O)OC)C1c1ccc(N(C)C)cc1 | -0.14

4 of the compounds above, field by field.
Compound: C=CCOc1cccc(C(=O)NC(c2ccccc2)C(C)C)c1 (stereo not given)
- Kir21 block: -1.4
Compound: N/C(=N\OC(=O)c1cc(-c2ccccc2)nc2ccccc12)c1ccc(Cl)cc1
- Kir21 block: 0.75
Compound: COc1ccc(N2C(=O)CC(Sc3nc(C)c4c(n3)CCCC4)C2=O)cc1 (stereo not given)
- Kir21 block: 0.41
Compound: CCOc1ccc(-c2nnn(CC(=O)N3CCN(c4ccc(OC)cc4)CC3)n2)cc1OCC
- Kir21 block: 0.03

7 compounds picked at random from the list so far:
SMILES | Kir21 block
COC(=O)C1=C(C)NC(C)=C(C(=O)OC)C1c1ccc(N(C)C)cc1 | -0.14
CC(=O)Nc1ccc(S(=O)(=O)NCc2cccnc2)cc1 | 0.01
CCOC(=O)C1=C(C)N=C2SCCC(=O)N2C1c1sccc1C (stereo not given) | -0.49
O=C(CSc1nnc2ccccn12)Nc1ccccc1C(=O)NC1CC1 | -1.24
CCC(=O)N1CC2(c3ccccc3)CN(C(=O)CC)CC(c3ccccc3)(C1)C2=O | 0.37
N/C(=N\OC(=O)c1cc(-c2ccccc2)nc2ccccc12)c1ccc(Cl)cc1 | 0.75
CCOc1ccc(-c2nnn(CC(=O)N3CCN(c4ccc(OC)cc4)CC3)n2)cc1OCC | 0.03
